AF4-AF9 inh: MLL-AF4/AF9 protein interaction inhibition. P42568. inhibition, % at 10 µM. 0.47% of 350,000 active. AlphaScreen, biotin-AF4 peptide binding to FLAG-AF9;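 active = every replicate reaching a set inhibition limit, whatever the replicate mean, cut at about 25% in these data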;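 also: 0% = plate neutral control median and 100% = total signal loss; the record names both 10 and 1 µM as test concentration; the first replicate is given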
Target sequence (P42568 whole entry, looked up): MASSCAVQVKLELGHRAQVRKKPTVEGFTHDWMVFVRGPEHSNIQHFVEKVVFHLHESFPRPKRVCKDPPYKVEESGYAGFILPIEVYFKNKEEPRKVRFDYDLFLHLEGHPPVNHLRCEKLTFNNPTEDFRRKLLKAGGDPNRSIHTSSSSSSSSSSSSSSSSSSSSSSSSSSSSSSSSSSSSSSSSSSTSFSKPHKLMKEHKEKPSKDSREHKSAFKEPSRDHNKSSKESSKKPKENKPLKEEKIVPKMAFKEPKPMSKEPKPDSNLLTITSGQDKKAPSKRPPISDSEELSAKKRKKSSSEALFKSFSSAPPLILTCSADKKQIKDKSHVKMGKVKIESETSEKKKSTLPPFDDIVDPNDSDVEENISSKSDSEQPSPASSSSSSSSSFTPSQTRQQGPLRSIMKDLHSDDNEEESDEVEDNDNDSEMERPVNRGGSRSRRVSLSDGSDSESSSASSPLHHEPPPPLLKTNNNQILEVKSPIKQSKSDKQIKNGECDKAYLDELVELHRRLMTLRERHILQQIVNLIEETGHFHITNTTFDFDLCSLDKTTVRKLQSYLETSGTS
FGF22 binding: shifts melting point of recombinant human FGF22; recombinant FGF22 thermal shift, SYPRO orange fluorescence; percent of sucrose octasulfate shift, DMSO zero; calls only at 9.99 µM; 1.5% of 340,000 active;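 active = melting point raised past a set limit in the mean and every replicate; three in four hits are not shown here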
Target sequence (Q9HCT0 whole entry, looked up): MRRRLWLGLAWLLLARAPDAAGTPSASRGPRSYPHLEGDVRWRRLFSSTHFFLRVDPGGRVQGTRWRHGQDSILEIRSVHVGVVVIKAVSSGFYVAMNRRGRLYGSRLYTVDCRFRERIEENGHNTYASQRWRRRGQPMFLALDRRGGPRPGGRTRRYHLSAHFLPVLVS
* = called active by the depositor; i = inactive; . = not tested or not shown; + = active, no number.

SMILES	AF4-AF9 inh	FGF22 binding
O=C(C[C@@H]1CC[C@H]2[C@@H](COC[C@@H](O)CN2Cc2nccs2)O1)NCc1ccccc1	1.9	i
O=C(C[C@H]1CC[C@H](NS(=O)(=O)c2ccc(F)cc2)[C@@H](CO)O1)NCCc1ccncc1	-0.5	i
COc1ccc(C#Cc2cnc3c(c2)C(=O)N([C@H](C)CO)C[C@H](C)[C@@H](CN(C)C)O3)cc1	9.0	i
Cc1noc(C)c1S(=O)(=O)N(C)C[C@H]1OCCCC[C@@H](C)Oc2ccc(NC(=O)Nc3ccc(C(F)(F)F)cc3)cc2C(=O)N([C@H](C)CO)C[C@@H]1C	-0.8	i
C=CCN1C(=O)[C@@]2(O[C@@H](CCn3cc([C@H](O)c4ccccc4)nn3)[C@H]([Si](C)(C)c3ccc(OC)cc3)[C@H]2C)c2cc(N3CCOC3=O)ccc21	-0.1	i
C[C@H](CO)N1C[C@H](C)[C@H](CN(C)Cc2cncnc2)Oc2cc(-c3ccccc3)ccc2S1(=O)=O	1.6	i
Cc1noc(C)c1NC(=O)N[C@H]1C=C[C@@H](CC(=O)Nc2ccccc2)O[C@H]1CO	-0.1	i
O=[N+]([O-])c1ccc(COc2cccc(CO)c2)cc1	-0.2	i
CCCN1[C@H](C(=O)OC)[C@@H](CO)[C@@H]2Cn3c(ccc(-c4ccccc4OC)c3=O)[C@@H]21	-2.8	i
C[C@H]1CN([C@@H](C)CO)C(=O)c2cccc(NC(=O)C3CCOCC3)c2O[C@@H]1CN(C)Cc1ccc2c(c1)OCO2	1.6	i
C[C@H](CO)N1C[C@H](C)[C@@H](CN(C)S(C)(=O)=O)Oc2cc(-c3ccncc3)ccc2S1(=O)=O	-10	i
COc1ccc2c3c([nH]c2c1)[C@H](CO)N(C(=O)c1cnccn1)CC31CCN(C(=O)c2cnccn2)CC1	0.6	i
O=C(N[C@@H]1CC[C@H](CCNS(=O)(=O)c2ccc(F)cc2)O[C@H]1CO)c1cccnc1	-0.2	i
CO[C@H]1CN(C)C(=O)c2cc(NC(C)=O)ccc2OC[C@@H](C)N(CCC(F)(F)F)C[C@H]1C	-15	i
Cc1ccc(S(=O)(=O)N(C)C[C@H]2Oc3c(NC(=O)Nc4ccc5c(c4)OCO5)cccc3C(=O)N([C@H](C)CO)C[C@@H]2C)cc1	-0.7	i
CO[C@@H]1CN(C)C(=O)c2cc(NC(=O)NC(C)C)ccc2OC[C@@H](C)N(C(=O)NC(C)C)C[C@@H]1C	-1.2	i
COCC(=O)N(C)C[C@H]1Oc2ncc(C#Cc3ccncc3)cc2C(=O)N([C@@H](C)CO)C[C@H]1C	-9.3	i
CCCC#Cc1ccc2c(c1)[C@H]1[C@H](CCN1S(=O)(=O)c1ccc(F)cc1)[C@H](CO)N2C	0.0	i
C[C@H](CO)N1C[C@H](C)[C@@H](CN(C)Cc2ccc(Cl)c(Cl)c2)Oc2ccc(NC(=O)Nc3ccc(F)cc3)cc2CC1=O	0.6	i
C[C@H]1CN([C@@H](C)CO)C(=O)c2cc(NS(=O)(=O)c3cn(C)cn3)ccc2O[C@H]1CN(C)Cc1ccc(-c2ccccc2)cc1	-1.5	i

One compound at a time, as listed above:
Record of C[C@H]1CN([C@@H](C)CO)C(=O)c2cc(NS(=O)(=O)c3cn(C)cn3)ccc2O[C@H]1CN(C)Cc1ccc(-c2ccccc2)cc1 = AF4-AF9 inh = -1.5; FGF22 binding = i
Record of C[C@H](CO)N1C[C@H](C)[C@@H](CN(C)S(C)(=O)=O)Oc2cc(-c3ccncc3)ccc2S1(=O)=O = AF4-AF9 inh = -10; FGF22 binding = i

Next compounds follow:
SMILES	AF4-AF9 inh	FGF22 binding
CO[C@H]1CN(C)C(=O)c2ccc(NS(=O)(=O)c3ccc(-c4ccccc4)cc3)cc2OC[C@H](C)NC[C@H]1C	-0.4	i
COCC(=O)Nc1ccc2c(c1)OC[C@H](C)N(C(=O)c1ccncc1)C[C@H](C)[C@H](OC)CN(C)C2=O	-0.8	i
COc1ccc(S(=O)(=O)N(C)C[C@H]2OCCCC[C@@H](C)Oc3ccc(NS(C)(=O)=O)cc3C(=O)N([C@H](C)CO)C[C@@H]2C)cc1	-1.0	i
CN(C)CC(=O)N1CCCCN2[C@H](C1)[C@H](c1ccc(-c3cccnc3)cc1)[C@@H]2CO	-0.2	i
C[C@@H]1CN([C@@H](C)CO)C(=O)c2cc(C#CCN(C)C)cnc2O[C@@H]1CN(C)C(=O)Nc1ccccc1F	-0.2	i
C[C@@H]1CN([C@@H](C)CO)C(=O)c2cccc(NS(=O)(=O)c3cccs3)c2O[C@H]1CN(C)S(=O)(=O)c1ccc(F)cc1	-1.8	i
O=C(NCC[C@@H]1CC[C@H](NC(=O)C2CCCC2)[C@@H](CO)O1)c1cnccn1	-4.1	i
C[C@@H](O)C#Cc1ccc([C@@H]2[C@@H](CO)N3CCCCN(C(=O)c4ccncc4)C[C@@H]23)cc1	-0.7	i
CN1C(=O)c2cc(NC(=O)c3cccc(F)c3)ccc2OC[C@@H]2O[C@H](CC(=O)Nc3ccccc3)CC[C@H]21	2.2	i
CCCC(=O)Nc1ccc2c(c1)C(=O)N(C)C[C@H](OC)[C@@H](C)CN(C(C)=O)[C@@H](C)CO2	-2.5	i
C[C@H](CO)N1C[C@H](C)[C@H](CN(C)CC2CC2)Oc2cc(C#Cc3ccncc3)ccc2S1(=O)=O	2.5	i
CC(=O)Nc1ccc2c(c1)C(=O)N(C)[C@H]1CC[C@@H](CC(=O)NCCCN3CCOCC3)O[C@@H]1CO2	-1.5	i
COCCNC(=O)C[C@@H]1C[C@@H]2c3cc(NC(=O)c4cccnc4)ccc3O[C@@H]2[C@@H](CO)O1	-1.9	i
C[C@@H]1CN([C@H](C)CO)C(=O)CCCn2cc(nn2)CO[C@@H]1CN(C)S(=O)(=O)c1ccc(-n2cccn2)cc1	-2.1	i
C[C@@H]1CN([C@@H](C)CO)C(=O)Cc2cc(NC(=O)Nc3ccc(C(F)(F)F)cc3)ccc2O[C@H]1CN(C)C(=O)Nc1cccc2ccccc12	-23	i
C[C@H]1CCCCO[C@@H](CN(C)C(=O)Nc2ccccc2)[C@@H](C)CN([C@@H](C)CO)C(=O)c2cc(NC(=O)Nc3ccc4c(c3)OCO4)ccc2O1	-3.2	i
COc1ccc(S(=O)(=O)Nc2ccc3c(c2)CC(=O)N([C@@H](C)CO)C[C@@H](C)[C@H](CN(C)C(=O)Nc2cccc4ccccc24)O3)cc1	6.2	i
CC(=O)N1[C@H](CO)[C@H](c2ccccc2)[C@H]1CN(C(=O)c1cccc(F)c1)C(C)C	-9.2	+
Cn1cnc(S(=O)(=O)N2CCCCN3[C@H](CO)[C@H](c4ccc(-c5cccc(F)c5)cc4)[C@@H]3C2)c1	-5.8	i
O=S(=O)(N[C@H]1CC[C@@H](CCn2cc(C3(O)CCCC3)nn2)O[C@H]1CO)c1ccc(Cl)cc1	-1.8	i
CCS(=O)(=O)N[C@H]1C=C[C@@H](CC(=O)NCc2ccc(Cl)cc2)O[C@@H]1CO	-1.2	i
CC(C)CC#Cc1cnc2c(c1)C(=O)N([C@@H](C)CO)C[C@@H](C)[C@H](CN(C)S(=O)(=O)c1cccs1)O2	0.8	i
Cc1ccccc1-c1ccc2c(c1)O[C@H](CN(C)C)[C@H](C)CN([C@@H](C)CO)S2(=O)=O	-1.3	i
COc1ccccc1-c1ccc2c(c1)[C@H]1[C@H](CCN1S(=O)(=O)c1cn(C)cn1)[C@H](CO)N2	6.7	i
O=C(C[C@H]1CC[C@@H]2[C@H](COC[C@H](O)CN2S(=O)(=O)c2cccc(Cl)c2)O1)Nc1ccccc1	4.0	+
COc1ccc(S(=O)(=O)N(C)C[C@H]2OCCCC[C@H](C)Oc3ccc(NC(=O)Cc4ccccc4)cc3C(=O)N([C@@H](C)CO)C[C@@H]2C)cc1	0.8	i
C[C@@H]1CCCCO[C@H](CN(C)C(=O)CCC(F)(F)F)[C@H](C)CN([C@H](C)CO)C(=O)c2cc(NS(=O)(=O)c3ccc(Cl)cc3)ccc2O1	-1.0	i
CO[C@@H]1CN(C)C(=O)c2ccc(NC(=O)c3cccc(F)c3)cc2OC[C@@H](C)NC[C@@H]1C	-2.2	i
Cc1noc(C)c1S(=O)(=O)Nc1ccc2c(c1)C(=O)N([C@H](C)CO)C[C@@H](C)[C@H](CN(C)C(=O)NC(C)C)OCCCC[C@@H](C)O2	4.4	i
CCN1[C@@H]2Cn3c(ccc(C4=CCCCC4)c3=O)[C@H]1[C@@H](C(=O)NCCOC)[C@@H]2CO	-12	i
C[C@H]1CN([C@@H](C)CO)C(=O)c2cccc(NC(=O)Nc3ccc(C(F)(F)F)cc3)c2O[C@@H]1CN(C)Cc1ccc2c(c1)OCO2	-2.2	i
CCC(=O)Nc1ccc2c(c1)OC[C@@H](C)N(C(=O)CC1CC1)C[C@H](C)[C@@H](OC)CN(C)C2=O	-8.1	i
Cc1ccc(C2NC(=O)c3n[nH]c(C(C)C)c32)cc1 (stereo not given)	-1.0	.
Cc1noc(C)c1NC(=O)N(C)C[C@H]1Oc2ccc(NS(=O)(=O)c3cccs3)cc2C(=O)N([C@@H](C)CO)C[C@H]1C	-13	i
CC(C)NC(=O)Nc1ccc2c(c1)C(=O)N([C@H](C)CO)C[C@H](C)[C@H](CN(C)C)O2	1.0	i
Cc1noc(C)c1NC(=O)N(C)C[C@H]1Oc2ccc(NC(=O)Nc3ccc4c(c3)OCO4)cc2C(=O)N([C@@H](C)CO)C[C@H]1C	1.3	i
O=C(CC1CC1)N1CC[C@@H]2[C@@H](CO)Nc3ccc(-c4ccc(F)cc4)cc3[C@@H]21	11	i
C[C@H]1CN([C@@H](C)CO)C(=O)c2cc(NS(=O)(=O)c3cccs3)ccc2O[C@H]1CN(C)Cc1ccncc1	-1.1	i
CNC[C@H]1Oc2ccc(NS(C)(=O)=O)cc2C(=O)N([C@H](C)CO)C[C@H]1C	-3.2	i
O=C(Nc1ccc(F)cc1)N1CCCCN2[C@H](CO)[C@@H](c3ccc(C4=CCCCC4)cc3)[C@H]2C1	17	i

Arranged by formula weight (rising): part of the list above.
SMILES	AF4-AF9 inh	FGF22 binding
CCN1[C@@H]2Cn3c(ccc(C4=CCCCC4)c3=O)[C@H]1[C@@H](C(=O)NCCOC)[C@@H]2CO	-12	i
C[C@H]1CN([C@@H](C)CO)C(=O)c2cc(NS(=O)(=O)c3cccs3)ccc2O[C@H]1CN(C)Cc1ccncc1	-1.1	i
Cc1noc(C)c1NC(=O)N(C)C[C@H]1Oc2ccc(NC(=O)Nc3ccc4c(c3)OCO4)cc2C(=O)N([C@@H](C)CO)C[C@H]1C	1.3	i
C[C@H]1CN([C@@H](C)CO)C(=O)c2cccc(NC(=O)Nc3ccc(C(F)(F)F)cc3)c2O[C@@H]1CN(C)Cc1ccc2c(c1)OCO2	-2.2	i

The results go on.
SMILES	AF4-AF9 inh	FGF22 binding
COc1ccc(NC(=O)N(C)C[C@@H]2Oc3ncc(C#CCC(C)C)cc3C(=O)N([C@@H](C)CO)C[C@H]2C)cc1	2.9	i
C[C@@H]1CN([C@@H](C)CO)C(=O)c2cc(N(C)C)ccc2O[C@H]1CN(C)C(=O)NC1CCCCC1	-2.2	i
O=C(C[C@@H]1CC[C@H]2[C@@H](COC[C@@H](O)CN2Cc2cccc(-c3ccncc3)c2)O1)N1CCOCC1	-4.9	i
CCCNC(=O)N1C[C@@H](C)[C@@H](OC)CN(C)C(=O)c2ccc(NC(=O)CC)cc2OC[C@H]1C	-3.8	i
O=C(C[C@H]1C[C@H]2c3cc(NC(=O)NC4CCCCC4)ccc3O[C@H]2[C@@H](CO)O1)NCc1ccncc1	-19	i
C[C@H](CO)N1C[C@H](C)[C@H](CN(C)C(=O)Nc2ccc(F)cc2)Oc2ccc(NS(=O)(=O)c3ccc(F)cc3)cc2CC1=O	-1.8	i
CC(C)C#Cc1ccc([C@H]2[C@H]3CN(C(=O)C4CCCCC4)CC(=O)N3[C@H]2CO)cc1	-7.8	i
CCC(=O)N[C@@H]1CC[C@H](CC(=O)NCC2CCCCC2)O[C@H]1CO	-0.1	i
C[C@@H]1CCCCO[C@H](CN(C)C(=O)Nc2ccccc2)[C@@H](C)CN([C@H](C)CO)C(=O)c2cc(NC(=O)Nc3ccc4c(c3)OCO4)ccc2O1	1.5	i
C[C@H](CO)N1C[C@H](C)[C@@H](CN(C)CC2CC2)OCCCC[C@H](C)Oc2ccc(NS(=O)(=O)c3ccc(Cl)cc3)cc2C1=O	11	i
CCCC(=O)N1CC2(C1)CN(C(=O)C1CCCCC1)[C@H](CO)c1[nH]c3cc(OC)ccc3c12	0.3	i
O=C(C[C@H]1C[C@@H]2c3cc(NC(=O)CC4CC4)ccc3O[C@@H]2[C@@H](CO)O1)NCCN1CCCCC1	2.9	i
COc1ccccc1-c1cn(CC[C@H]2CC[C@@H](NS(=O)(=O)c3ccccc3C)[C@H](CO)O2)nn1	-9.4	i
C[C@@H]1CN([C@H](C)CO)C(=O)Cc2cc(NS(C)(=O)=O)ccc2O[C@@H]1CN(C)Cc1ccc(-c2ccccc2)cc1	3.9	i
COCC(=O)N(C)C[C@@H]1Oc2cc(C#C[C@H](C)O)ccc2S(=O)(=O)N([C@H](C)CO)C[C@@H]1C	-2.6	i
CCC(=O)Nc1ccc2c(c1)C(=O)N(C)C[C@@H](OC)[C@H](C)CN(CCC(F)(F)F)[C@@H](C)CO2	-0.5	i
CO[C@@H]1CN(C)C(=O)c2ccc(NC(=O)C3CC3)cc2OC[C@H](C)N(Cc2nccs2)C[C@@H]1C	-1.9	i
O=C(C[C@@H]1CC[C@H]2[C@@H](COC[C@H](O)CN2C(=O)Nc2cc(Cl)cc(Cl)c2)O1)NCC1CC1	1.4	i

High-throughput results (PubChem)

An excerpt; count on the stated rates, not on these rows.
